Source: PubChem BioAssay (National Center for Advancing Translational Sciences (NCATS))
Bst PK mod – pyruvate kinase (B. stearothermophilus) modulation | AID 361 | partly purified Bacillus stearothermophilus pyruvate kinase, luminescence ATP production; ribose 5-phosphate activator present at AC10 | Potency, µM | 51,000 tested, 1.2% active; in the data active means potency below about 11 µM; inconclusive means mostly about 12 µM to 25 µM; inactive means weaker than that;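 the screen sought inhibitors and activators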;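 also: potency is read from the fitted curve at half-maximal effect; scaled between full activation by ribose 5 phosphate and full inhibition by luteolin; about four in five hits inhibit and the cells do not say which; series up to 57 µM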
TsaE inh – inhibitors of E. coli YjeE (TsaE); P0AF67; purified YjeE, fluorescence polarisation of a bound ADP probe; Potency, µM; 71,000 tested, 0.05% active; active = well fitted falling curve; inconclusive = weaker or top-dose-only fall, or a rising curve; inactive = flat or poorly fitted curve;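 also: top concentration of the series not given in the record; excess ADP was the control for the full effect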
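Fluorescence polarization of a BODIPY Texas Red–ADP probe (2 uM) bound to purified YjeE (10 uM) was read after 15 min room-temperature incubation with compounds. Loss of polarization marks inhibitors; ADP serves as titrated control.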
An asterisk follows results filed as active; i = inactive; ? = inconclusive; nt = no result given.

SMILES | Bst PK mod | TsaE inh
O=C(Cn1[nH]c(=O)c2ccccc2c1=O)OCC(=O)N1CCc2ccccc2C1 | >57 | i
CCCCCCC[N+](CC)(CC)CCCCc1ccc(Cl)cc1 | nt | i
COc1ccc(CC/C(=N\O)C2(O)CCCCC2)cc1 | nt | i
COC(=O)[C@@]1(Cc2ccc(OC)cc2)[C@H]2c3cc(C(=O)N4CCCC4)n(CCN4CNCC4=O)c3C[C@H]2CN1C(=O)c1ccccc1 | nt | i
COc1ccc2nc(C)cc(SCC(=O)O)c2c1 | >57 | i
Clc1ccccc1NN(Cc1ccccn1)c1ccccc1Cl | nt | i
CC(C)(C)c1cnnn1-c1ccc(NC(=O)c2ccc3c(c2)OCO3)cc1 | >57 | i
Cc1c(C(=O)O)sc(=S)n1-c1ccccc1 | >26 | nt
c1ccc(-c2noc(-c3cccc4ccccc34)n2)cc1 | i | i
O=C(CCSc1ccccc1)N1CCN(C(=O)c2ccco2)CC1 | >57 | i
O=C(Nc1ccccc1)NC1(C(=O)NCc2ccc3c(c2)OCO3)CCCCC1 | >57 | i
Cc1cc(NC(=O)c2cnn3c(C(F)F)cc(C4CC4)nc23)no1 | >57 | i
COc1cc(-c2nnc(-c3ccncc3)o2)ccc1OCc1ccccc1 | >57 | i
O=C(NCCN1CCOCC1)c1ccccc1-c1ccccc1 | >57 | i
COCCNC(=O)c1ccccc1NC(=O)CN(c1ccc2c(c1)OCO2)S(C)(=O)=O | >57 | i
COc1ccccc1CN1CCCC2(CCN(C(=O)c3csnn3)CC2)C1 | nt | i
Cc1ccc(CN2C(=O)CCC2C(=O)NCCN2CCOCC2)cc1 (centres undefined) | >57 | i
COC(=O)c1c[nH]n2c(=O)cc(C)nc12 | >57 | i
CCc1sc(NS(C)(=O)=O)nc1-c1ccccc1 | >57 | i
CCOc1ccc2nc(-c3ccccc3)[nH]c2c1 | 2* | i
COc1cccc(NS(=O)(=O)c2ccc3[nH]cc(C(=O)NCCN4CCOCC4)c(=O)c3c2)c1 | >57 | i
O=C(O)CCc1nc(-c2ccc(Cl)cc2)no1 | >57 | i
O=S(=O)(NCc1cccs1)c1cccc(S(=O)(=O)N2CCCCC2)c1 | >57 | i
COc1ccccc1-c1ccc2ncnc(N3CCN(C)CC3)c2c1 | nt | i
Cc1cccc(-n2nnc(C(=O)N3CCc4ccccc4C3)c2N)c1 | >57 | i
CCn1c(Oc2ccc(Oc3ncc(Cl)cc3Cl)cc2)nc2c1c(=O)n(C)c(=O)n2C | >57 | i
CCS(=O)(=O)N1CCC(C(=O)NCCN2CCN(Cc3ccccc3)CC2)CC1 | >57 | i
CC(C)CCn1c(SCCc2ccccc2)nc2c1c(=O)[nH]c(=O)n2C | >57 | i
CC1Cc2ccccc2N1C(=O)Cn1c(=O)oc2cc(S(=O)(=O)N3CCCCC3)ccc21 (centres undefined) | nt | i
CCCS(=O)(=O)N1CCN(C(=O)c2ccc(-c3ccccc3)cc2)CC1 | nt | i
CC(C)(N=NC(C)(C)C1=NCCN1)C1=NCCN1 | nt | i
COc1cc(C(=O)Nc2nnc(CC(=O)N3CCOCC3)s2)cc(OC)c1OC | >57 | i
O=C(O)CSc1sc(=S)sc1SCC(=O)O | >57 | i
CCCS(=O)(=O)N1CCC(C(=O)N2CCN(C(=O)OCC)CC2)CC1 | >57 | i
CCSc1nc(O)c(C2OC(=O)c3c2ccc(OC)c3OC)c(=O)n1CC (centres undefined) | >57 | i
Cc1cc(C)n(-c2nc3c(c(=O)[nH]c(=O)n3C)n2CC(O)c2ccccc2)n1 (centres undefined) | >57 | i
O=S(=O)(c1ccccc1)N1CCN(Cc2ccccc2C(F)(F)F)CC1 | >57 | i
COc1ccccc1-c1ccc2ncnc(Nc3ccccc3)c2c1 | nt | i
CC(C)N1C(=O)c2ccccc2C1C(=O)NC1CCCCCC1 (centres undefined) | >57 | i
COc1ccc(C(c2nnnn2Cc2ccccc2)N2CCN(c3ccccc3)CC2)cc1 (centres undefined) | >57 | i

7 structures out of the list, arranged by count of non-hydrogen atoms, descending:
SMILES | Bst PK mod | TsaE inh
COc1ccc(C(c2nnnn2Cc2ccccc2)N2CCN(c3ccccc3)CC2)cc1 (centres undefined) | >57 | i
O=C(Nc1ccccc1)NC1(C(=O)NCc2ccc3c(c2)OCO3)CCCCC1 | >57 | i
Cc1cc(C)n(-c2nc3c(c(=O)[nH]c(=O)n3C)n2CC(O)c2ccccc2)n1 (centres undefined) | >57 | i
COc1cc(-c2nnc(-c3ccncc3)o2)ccc1OCc1ccccc1 | >57 | i
O=C(NCCN1CCOCC1)c1ccccc1-c1ccccc1 | >57 | i
c1ccc(-c2noc(-c3cccc4ccccc34)n2)cc1 | i | i
Cc1c(C(=O)O)sc(=S)n1-c1ccccc1 | >26 | nt

New compounds follow
SMILES | Bst PK mod | TsaE inh
Cc1occc1-c1nnc(SCC(=O)Nc2ccccc2)n1CCc1ccccc1 | >57 | i
Cc1nc2cc(CO)ccc2n1C | >57 | i
CCn1c(SCC(=O)NC2CCCCC2)nnc1-c1cccs1 | >57 | i
CC(C)n1c(SCC(=O)N2CCCC2)nc2c1c(=O)n(C)c(=O)n2C | >57 | i
FC(F)(F)c1cccc(-c2nc3nc(Cl)c(Cl)nc3[nH]2)c1 | nt | i
COc1cccc(C(=O)Nc2ncc3c(n2)CC(C)(C)CC3=O)c1 | >57 | i
CCc1c(C)sc(NC(=O)CC#N)c1C#N | >57 | i
CN1CCc2c(sc3c2C(=O)NC(c2ccc(-c4cccc(Cl)c4)o2)N3)C1 (centres undefined) | nt | i
Cc1oc(-c2ccc(Cl)cc2)nc1CN1CCC(C(=O)N2CCN(Cc3ccccc3)CC2)CC1 | nt | i
COCCN1C(=O)c2ccccc2C(C(=O)NCC2CCCO2)C1c1c[nH]c2ccccc12 (centres undefined) | >57 | i
O=S(=O)(c1cc(Cl)ccc1Br)N1CCOCC1 | nt | i
COc1ccc(-c2nnn(CC(=O)c3c[nH]c4ccccc34)n2)cc1OC | >57 | i
COC(=O)c1[nH]nc2c1C(=O)N(C1CCCCC1)C2=O | >57 | i
CC1CC(C)CN(CCCNC(=O)COc2cc(=O)n(C)c3ccccc23)C1 (centres undefined) | >57 | i
Cc1cc(C(=O)Nc2cc(C)n(Cc3ccc(Cl)cc3)n2)no1 | >57 | i
Cn1cnnc1SCC(=O)c1ccco1 | >57 | i
N#Cc1cccc(-c2cc(NCc3ccccc3)ncn2)c1 | nt | i
O=C(O)C[C@H](NC(=O)CP(=O)(O)O)C(=O)O.[NH-][C@@H]1CCCC[C@@H]1[NH-].[Pt] | nt | i
CC/C(=N\O)c1ccc(O)c(OC)c1 | nt | i
COc1cc2c(cc1OC)CN(C(=O)c1cccs1)CC2 | >57 | i
CC1CCCC(NC(=O)Cn2cc3c(n2)CCCCC3)C1C (centres undefined) | nt | i
CC(=O)Nc1ccc(S(=O)(=O)N2CCN(CCCOc3cc(C)ccc3C)CC2)cc1 | >57 | i
COc1ccccc1CNC(=O)C1CCN(S(=O)(=O)c2cccc3cccnc23)CC1 | nt | i
COc1ccc(NC(=O)COc2ccccc2C#N)c(S(=O)(=O)N2CCCCC2)c1 | >57 | i
Oc1ccc(Br)cc1-c1nc2cnccn2c1NC1CCCC1 | >57 | i
CS(=O)(=O)c1ccc(Cl)c(NC(=O)C2CC(=O)N(Cc3ccccc3)C2)c1 (centres undefined) | >57 | i
CCCn1c(=O)n(C)c(=O)c2c3oc(=O)c(NC(=O)c4ccc(F)cc4)cc3[nH]c21 | >57 | i
CC(C)CCNC(=O)NC(=O)CSc1nnc(COc2ccccc2Cl)o1 | >57 | i
O=C(c1cc(Cl)ccc1Cl)N1CCOCC1 | nt | i
O=C(Nc1cc(C(F)(F)F)ccc1F)C1CCC1 | >57 | i
O=C(c1cccc(S(=O)(=O)N2CCCC2)c1)c1nnc(-c2ccncc2)o1 | >57 | i
CCOC(=O)Cn1c(CN(Cc2ccccc2)Cc2ccccc2)nc2c1c(=O)n(C)c(=O)n2C | >57 | i
O=C1CCCN1Cc1ncnn1-c1ccccc1 | >57 | i
CCC(=O)N1CCN(c2cc(C)ccc2C)CC1 | >57 | i
COc1ccc(NC(=O)C2CC(=O)N(c3cc(C)ccc3C)C2)cc1 (centres undefined) | >57 | i
CC1(NC[C@@H](O)COc2cccc3[nH]ccc23)CCC(C(C)(C)NC(=O)CBr)CC1 (some centres undefined) | nt | i
Cn1c(-c2ccccc2)cnc1SCc1nc2ccccc2c(=O)[nH]1 | i | i
CCCCCCNC(=O)Nc1ccccc1 | nt | i
O=c1c2ccccc2nnn1CSc1nc2cc(Cl)ccc2c(=O)n1Cc1ccco1 | >57 | i
NC(=O)c1cc2ccc(O)cc2oc1=Nc1ccccc1 | ? | i
O=C(Nc1ccccc1F)c1ccc(S(=O)(=O)NCC2CCCO2)cc1 (centres undefined) | >57 | i
Cc1ccnc(NS(=O)(=O)c2ccccc2)n1 | >57 | i
CCn1cc(Br)c(C(=O)N2CCN(c3ccccc3)CC2)n1 | >57 | i
Cc1ccc2nsnc2c1S(=O)(=O)Nc1cccc2nsnc12 | >57 | i
O=c1nccc(NCc2ccco2)[nH]1 | >57 | i
CCOC(=O)c1sc(NC(=O)c2cc(S(=O)(=O)N3CCOCC3)ccc2C)nc1C | >57 | i
CCOc1ccc(C(CC(=O)O)NS(=O)(=O)c2ccc(C)cc2)cc1OC (centres undefined) | >57 | i
Nc1nc(CSCc2ccccc2)nc(N2CCOCC2)n1 | >57 | i
O=C(NCCN1CCN(c2ccccc2)CC1)c1cccn2c(=O)c3ccccc3nc12 | >57 | i
COCCCn1c(SCC(=O)N2CCc3ccccc32)nnc1-c1ccoc1C | >57 | i
COc1ccc(OCC(O)Cn2c(=N)n(CCN3CCOCC3)c3ccccc32)cc1 (centres undefined) | >57 | i
CCOc1ccc(N(CC(=O)NCc2cccc(OC)c2)S(=O)(=O)c2c(C)noc2C)cc1 | >57 | i
CN1CCN(C(=O)C2CCC(CNS(=O)(=O)c3cccc4cccnc34)CC2)CC1 (centres undefined) | nt | i
CC(C)NC(=O)C1CCN(C(=O)C(C(=O)c2ccccc2)n2cc(Cl)ccc2=O)CC1 (centres undefined) | >57 | i
COC(=O)c1sccc1NC(=O)C1C2C=CC(O2)C1C(=O)O (centres undefined) | >57 | i
C#CCNc1nc(C)nc2c1nnn2Cc1ccccc1F | >57 | i
Cc1cccn2c(=O)c3cc(C#N)c(=N)n(CCN4CCOCC4)c3nc12 | >57 | i
Cc1ccc(S(=O)(=O)/C(C#N)=C/c2c(N3CCN(C)CC3)nc3ccccn3c2=O)cc1 | >26 | nt
O/N=C1/CCCCc2sccc21 | nt | i
c1cncc(CNc2nc(-c3ccc4c(c3)OCO4)nc3ccccc23)c1 | nt | i

Next results:
SMILES | Bst PK mod | TsaE inh
c1ccc2c(c1)[nH]c1ccccc12 | nt | i
CCOc1ccc(N(CC(=O)NCC2CCCO2)S(=O)(=O)c2ccc(OC)c(OC)c2)cc1 (centres undefined) | nt | i
COc1ccc(N2CCN(c3nc(NCCO)nc(N4CCOCC4)n3)CC2)cc1 | >57 | i
Cc1nc2ccccc2c(=O)n1CC(=O)N1CCOCC1 | >57 | i
CCOC(=O)CCCc1sc(N)nc1-c1[nH]c(=O)[nH]c1C | >57 | i
CCCC/C=C/C(NC(=O)c1ccc(C(F)(F)F)cc1)c1ccccc1 (centres undefined) | nt | i
Cc1ccc(C(C(=O)NCCc2ccccc2)N(C(=O)c2csnn2)C2CC2)o1 (centres undefined) | >57 | i
O=C(COc1ccccc1F)Nc1ccc(S(=O)(=O)NCc2ccco2)cc1 | >57 | i
CC1(C)CC(=O)C(C=NCC2CCNCC2)=C(O)C1 | nt | i
Cc1csc2nc(CNS(=O)(=O)c3cccnc3)cn12 | >57 | i
COc1ccc(-n2c(SCC#N)nc3ccccc3c2=O)cc1 | nt | i
OCCSCc1ccccc1 | nt | i
CCOC(=O)C1=C(C)N=C2SCCC(=O)N2C1c1sccc1C (centres undefined) | >57 | i
Cn1c(-n2c(-c3ccco3)nc3ccccc3c2=O)nc2ccccc21 | >26 | nt
CCN1CCN(CC(=O)Nc2ccc(Cl)c(Cl)c2)C(=O)C1=O | nt | i
O=C(NCc1cccs1)O[C@H]1C[C@H]2CC[C@@H]1C2 | nt | i
NC(=O)NC1CCCc2c1[nH]c1ccc(Cl)cc21 (centres undefined) | nt | i
OCC(CO)(CO)n1cnnn1 | >57 | i
Cc1ccc(-c2nnc(CSc3nnc(COc4ccccc4)n3-c3ccc(C)cc3)o2)cc1 | >57 | i
Cc1c(NC(=O)Nc2ccccc2Cl)sc(=S)n1C | nt | i

2 of the compounds above, with values ahead of the structure.
Bst PK mod	TsaE inh	SMILES
>57	i	OCC(CO)(CO)n1cnnn1
>57	i	Cc1ccc(-c2nnc(CSc3nnc(COc4ccccc4)n3-c3ccc(C)cc3)o2)cc1

Next results.
SMILES | Bst PK mod | TsaE inh
O=C(Nc1ccccc1)N1CCCC2(CCN(C(=O)c3cnccn3)CC2)C1 | nt | i
O=C1c2ccccc2C(=O)N1CCc1nc2ccccc2c(=O)n1-c1ccccn1 | >57 | i
O=C(O)c1ccc(CS(=O)(=O)c2cccc(C(F)(F)F)c2)o1 | >57 | i
O=c1c2ccccc2nc2ccc(NCc3ccco3)nn12 | i | i
O=C(c1ccco1)N1CCN(C(c2ccccc2Cl)c2nnnn2CC2CCCO2)CC1 (centres undefined) | >57 | i
CN1CCN(c2ncc3nc(-c4cccc(C#N)c4)c(=O)n(Cc4ccc(F)cc4)c3n2)CC1 | nt | i

Not all compounds are listed; count on the stated rates, not on these rows.
